Screens deposited in PubChem BioAssay by National Center for Advancing Translational Sciences (NCATS).
Six1-Eya2 blk = qHTS Assay for Inhibitors of the Six1/Eya2 Interaction; AlphaScreen GST-Six1/His-Eya2 binding, biochemical; active compounds read low; control for the full effect not named in the record; activity change, % (test concentration not listed); hit rate 0.56% among 360,000; AID 651725, 2012; in the data active = activity change below about -65%; inconclusive = about -30% to -65%; inactive = above about -30%; also: % is scaled to controls: 0 for no effect and ±100 for the full control effect
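GST-Six1 + His-Eya2 (5X stock: 250/500 nM); Tris pH 8.0, 300 mM NaCl, 0.05% BSA, 0.02% Tween 20; GSH donor/Ni acceptor beads; 1 h 37 °C dark; AlphaScreen readout.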
D2 ag = Beta-Arrestin HTS for Positive Allosteric Modulators of the Human D2 Dopamine Receptor: Agonists; hit rate 0.084% among 360,000; AID 624465, 2012; activation, % (concentration not given with the values); DiscoveRx PathHunter D2 beta-arrestin, luminescence, 90 min; 100% = 57 uM dopamine signal; in the data active = activation above about 40%; inconclusive = about 15% to 40%; inactive = below about 15%; also: compound concentration not given in the record; the text of the record calls up to 30% inactive
Target sequence (P14416 whole entry, looked up): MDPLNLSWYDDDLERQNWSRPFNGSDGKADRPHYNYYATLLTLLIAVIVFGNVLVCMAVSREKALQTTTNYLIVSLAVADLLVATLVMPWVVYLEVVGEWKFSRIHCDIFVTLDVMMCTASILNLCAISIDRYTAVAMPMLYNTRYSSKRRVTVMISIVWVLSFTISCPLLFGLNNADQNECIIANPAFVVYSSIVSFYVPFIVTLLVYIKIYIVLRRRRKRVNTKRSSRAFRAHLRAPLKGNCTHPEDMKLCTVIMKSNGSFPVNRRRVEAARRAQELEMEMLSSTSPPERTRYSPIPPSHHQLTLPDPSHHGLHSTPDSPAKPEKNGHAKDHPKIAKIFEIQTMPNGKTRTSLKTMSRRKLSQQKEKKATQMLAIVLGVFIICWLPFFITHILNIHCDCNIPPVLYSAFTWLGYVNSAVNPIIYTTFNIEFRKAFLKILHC
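Agonist mode: compounds alone added to overnight-plated D2 PathHunter cells for 90 min at 37 C, with 57 uM final dopamine (EC100) defining full response. Beta-arrestin recruitment detected by chemiluminescent reagent, read after 1 h at ambient temperature.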
CtBP-E1A inh = qHTS Assay for Inhibitors of the CtBP/E1A Interaction; AlphaScreen GST-E1A/His-CtBP binding, 1536-well; active compounds read low; control for the full effect not named in the record; CtBP / adenovirus E1A interaction (AlphaScreen); AID 651724, 2012; hit rate 0.49% among 340,000; activity change, % (no concentration beside the values); in the data active means activity change below about -65%; inconclusive means about -30% to -65%; inactive means above about -30%; also: % is scaled to controls: 0 for no effect and ±100 for the full control effect
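AlphaScreen with 125 nM GST-E1A and 125 nM His-CtBP (5X stocks) in Tris pH 8.0, 300 mM NaCl, BSA, Tween 20, TCEP. Compounds preincubated 2 h at 37 deg C, then glutathione donor/nickel acceptor beads added for 1 h at 37 deg C in dark.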
D2 PAM = Beta-Arrestin HTS for Positive Allosteric Modulators of the Human D2 Dopamine Receptor: Potentiators | D(2) dopamine receptor (Homo sapiens), P14416 | DiscoveRx D2 beta-arrestin cells, luminescence, 90 min; 100% = 57 uM dopamine signal | potentiation, % (test concentration not listed) | hit rate 0.23% among 360,000 | AID 624464, 2012; active = potentiation of 50% or more; inconclusive = 30% to 50%; inactive = 30% or less;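 also: compound concentration not given in the record; tested on top of an EC20 dose of dopamine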
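PathHunter D2 cells, attached overnight at 37 deg C, received compound in DMSO plus dopamine at EC20 (50 nM final) for 90 min at 37 deg C. Beta-arrestin recruitment was read as luminescence after 1 h with detection reagent at ambient temperature.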
gsp antag = qHTS for Antagonists of gsp, the Etiologic Mutation Responsible for Fibrous Dysplasia/McCune-Albright Syndrome: qHTS; gsp-mutant cells, cAMP HTRF, 30 min; control for the full effect not named in the record; Potency, µM (highest dose often 76.9 µM), for the others: at the highest dose activity change, negative = inhibition, actives largely listed as inhibitors; hit rate 0.4% among 340,000; active = falling curve of any shape with a large fitted effect; inconclusive = falling curve, mostly with a smaller effect; inactive = flat or rising curve; cell line not stated here;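 also: intracellular cAMP measured with PDE inhibitor Ro 20-1724 present during compound exposure; potency is read from the fitted curve at half-maximal effect; % is scaled to controls: 0 for no effect and ±100 for the full control effect; nearly all actives have a fitted effect of over 65% in size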
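HTRF cAMP read-out (cAMP-d2 plus anti-cAMP antibody-K in lysis buffer, 30 min RT). Before lysis, cells are exposed to compounds with […] for 30 min at 37C in DPBS containing Ca/Mg, BSA and Tween 20.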
gsp ag = qHTS for Agonist of gsp, the Etiologic Mutation Responsible for Fibrous Dysplasia/McCune-Albright Syndrome: qHTS | Potency, µM (top dose mostly 76.9 µM), for the others: at the top dose activation (cAMP increase), most hits filed as activators | gsp mutant cells, cAMP HTRF, 30 min; control for the full effect not named in the record | AID 624287, 2012 | hit rate 0.13% among 340,000; active = well fitted activation curve with a large enough effect; inconclusive = small, poorly fitted or top-dose-only effect, or another doubt; inactive = no such curve, though single readings can be large or run the other way; cell line not stated here;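 also: phosphodiesterase inhibitor Ro 20-1724 added with compounds to block cAMP breakdown; potency is read from the fitted curve at half-maximal effect; nearly all actives have a fitted effect of over 60% in size; about a fifth of the inactives were tested at one dose only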
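Cells stably selected in G418 were plated at 2000/well, grown 16-24 hr, then given compounds in DMSO with the PDE inhibitor […] (300 uM solution added) for 30 min at 37C; cAMP was read by HTRF.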
Numbers without * were called inactive; ? = inconclusive; · = not tested or not shown; [ ] = remark or other dose. Not all compounds are listed, so the mix of outcomes need not match the whole.

cpd	SMILES	Six1-Eya2 blk	D2 ag	CtBP-E1A inh
1	Cc1ncc(CN2CCCC(C(=O)c3cccc(OC(C)C)c3)C2)s1 (centres undefined)	-11	-2.2	-5
2	Cc1nn(Cc2ccc(Cl)cc2Cl)c(Cl)c1C(=O)O	8	-3.0	·
3	CC(N)Cc1cn(Cc2ccccc2)c2ccccc12 (centres undefined)	-4	-7.3	-21
4	O=C(Nc1ccc(Cl)cc1C(=O)c1ccccc1)c1ccco1	0	-0.5	-15
5	Fc1c(F)c(F)c(N2CCNCC2)c(F)c1F	-12	-2.7	0
6	CCN(CC)CC(O)c1ccc(C2CCCC2)cc1 (centres undefined)	-2	-2.3	4
7	CC(C)CN1Cc2cc(-c3ccccc3)ccc2-n2nncc2C1	1	-2.3	-24
8	COC(=O)C1=C(c2ccc(OCc3ccccc3)cc2)C[C@@H]2CC[C@H]1N2C(=O)NCCN1CCOCC1	5	-5.6	-28
9	CCOc1ccccc1N=C1SCCCN1C	0	-1.9	1
10	COc1ccc(CCNCc2ccc(Br)cc2)cc1OC	-9	1.6	-7
11	O=c1[nH]cnc2nc(-c3ccc(N(CCCl)CCCl)cc3)[nH]c12	8	6.1	6
12	Cc1ccc(-n2c(O)c(C=NCCN(C)C)c(=O)[nH]c2=O)cc1	-4	-4.7	-2
13	O=C(Cc1ccc(Br)cc1)N1CCN(Cc2ccccc2)CC1	4	2.1	-3
14	CC(=O)O[C@H]1CCC2C3CC[C@H]4[C@@H](O)[C@H](O)CC[C@]4(C)C3CC[C@@]21C (some centres undefined)	0	-1.2	10
15	C=CCn1c(O)c(C=NCCN(C)C)c(=O)[nH]c1=O	5	0.8	-2

cpd	D2 PAM	gsp antag	gsp ag
1	-4	-12%	-12%
2	-11	3%	-1%
3	-35	12%	-9%[15.4 µM]
4	-10	-15%	-27%
5	-31	5%	-1%[15.4 µM]
6	-2	20%	-11%[15.4 µM]
7	-10	·	·
8	-13	6%	?
9	-14	12%	?
10	-14	14%	-12%
11	0	-4%	0%
12	-11	11%	-1%[15.4 µM]
13	-12	-28%	?
14	-6	7%	-1%
15	-1	4%	-25%

3 entries from above, with bars between the fields:
entry | Structure | Six1-Eya2 blk | D2 ag | CtBP-E1A inh | D2 PAM | gsp antag | gsp ag
2 | Cc1nn(Cc2ccc(Cl)cc2Cl)c(Cl)c1C(=O)O | 8 | -3.0 | · | -11 | 3% | -1%
15 | C=CCn1c(O)c(C=NCCN(C)C)c(=O)[nH]c1=O | 5 | 0.8 | -2 | -1 | 4% | -25%
11 | O=c1[nH]cnc2nc(-c3ccc(N(CCCl)CCCl)cc3)[nH]c12 | 8 | 6.1 | 6 | 0 | -4% | 0%

(listing goes on)
cpd	SMILES	Six1-Eya2 blk	D2 ag	CtBP-E1A inh
16	Nc1ncn[nH]1	-2	-4.2	-1
17	OCCOCCO	4	-7.5	-15
18	CCCCc1nc2ccccc2c(=O)n1-c1ccc(O)cc1	-1	0.2	2
19	CN1CCc2c(c(N3CCCCC3)nc3n[nH]c(N)c23)C1	-1	0.3	-5
20	Cc1ccccc1-[n+]1c(-c2ccccc2)cc(-c2ccccc2)cc1-c1ccccc1	-4	1.0	4
21	CCCCCn1c(CN2CCN(C(=O)OCC)CC2)nc2c1c(=O)n(C)c(=O)n2C	3	0.0	4
22	CC(=NC(C)c1ccccc1)c1c(O)[nH]c(=O)[nH]c1=O (centres undefined)	1	0.1	8
23	O=S(=O)(c1cc(Cl)cc(Cl)c1)N1Cc2cc(-c3ccccc3)ccc2-n2nncc2C1	2	-1.6	6
24	C=CCn1cc(C=C2C(=O)N(C)C(=O)N(C)C2=O)c2ccccc21	2	-0.4	3
25	CN(C)C(=O)Oc1cccc(NC(=O)c2ccccc2C(F)(F)F)c1	-10	-3.2	-5
26	c1ccc(CCNC2CCCCCC2)cc1	17	-2.2	7
27	Cn1cc(C(=O)NP(=O)(N2CCOCC2)N2CCOCC2)c2ccccc21	3	-22	5
28	Cc1c(C(=O)N2CCC3(CC2)OCCO3)oc2ccc(S(=O)(=O)N3CCCCC3)cc12	0	1.1	-5
29	C=CCn1c(=O)c(C=Nc2cccnc2Cl)c(O)n(CCCC)c1=O	3	-5.6	·

cpd	D2 PAM	gsp antag	gsp ag
16	-5	8%	10%[15.4 µM]
17	-6	0%	·
18	20	-10%	0%
19	-5	1%	-73%[inhibitor]
20	-51	-30%	·
21	-2	14%	?
22	-1	12%	17%
23	-3	·	·
24	0	-2%	-52%[inhibitor]
25	-8	11%	10%[15.4 µM]
26	-18	9%	14%
27	1	8%	-1%[15.4 µM]
28	-11	3%	7%
29	-2	0%	2%

Structural class, the compounds so far containing four or more nitrogen atoms
cpd	SMILES	Six1-Eya2 blk	D2 ag	CtBP-E1A inh
7	CC(C)CN1Cc2cc(-c3ccccc3)ccc2-n2nncc2C1	1	-2.3	-24
11	O=c1[nH]cnc2nc(-c3ccc(N(CCCl)CCCl)cc3)[nH]c12	8	6.1	6
12	Cc1ccc(-n2c(O)c(C=NCCN(C)C)c(=O)[nH]c2=O)cc1	-4	-4.7	-2
15	C=CCn1c(O)c(C=NCCN(C)C)c(=O)[nH]c1=O	5	0.8	-2
16	Nc1ncn[nH]1	-2	-4.2	-1
19	CN1CCc2c(c(N3CCCCC3)nc3n[nH]c(N)c23)C1	-1	0.3	-5
21	CCCCCn1c(CN2CCN(C(=O)OCC)CC2)nc2c1c(=O)n(C)c(=O)n2C	3	0.0	4
23	O=S(=O)(c1cc(Cl)cc(Cl)c1)N1Cc2cc(-c3ccccc3)ccc2-n2nncc2C1	2	-1.6	6
27	Cn1cc(C(=O)NP(=O)(N2CCOCC2)N2CCOCC2)c2ccccc21	3	-22	5
29	C=CCn1c(=O)c(C=Nc2cccnc2Cl)c(O)n(CCCC)c1=O	3	-5.6	·

cpd	D2 PAM	gsp antag	gsp ag
7	-10	·	·
11	0	-4%	0%
12	-11	11%	-1%[15.4 µM]
15	-1	4%	-25%
16	-5	8%	10%[15.4 µM]
19	-5	1%	-73%[inhibitor]
21	-2	14%	?
23	-3	·	·
27	1	8%	-1%[15.4 µM]
29	-2	0%	2%
